Screening results: PubChem, National Center for Advancing Translational Sciences (NCATS)
TSHR ag: activates the human thyroid stimulating hormone receptor. P16473. HEK293-CNG-TSHR cells (CNG channel as cAMP sensor), membrane potential dye, cAMP. Potency, µM (series often up to 57.1 µM), for inactives: top-dose activation, most hits filed as activators. hit rate 0.48% among 73,000; active = well fitted activation curve of enough size with the parental cells flat; inconclusive = any curve in the parental cells; inactive = parental cells flat and receptor cells flat or falling; also: potency is read from the fitted curve at half-maximal effect; % of control where 0% means no effect; weak receptor curves with flat parental cells got no call and are not listed
Target sequence (P16473 whole entry, looked up): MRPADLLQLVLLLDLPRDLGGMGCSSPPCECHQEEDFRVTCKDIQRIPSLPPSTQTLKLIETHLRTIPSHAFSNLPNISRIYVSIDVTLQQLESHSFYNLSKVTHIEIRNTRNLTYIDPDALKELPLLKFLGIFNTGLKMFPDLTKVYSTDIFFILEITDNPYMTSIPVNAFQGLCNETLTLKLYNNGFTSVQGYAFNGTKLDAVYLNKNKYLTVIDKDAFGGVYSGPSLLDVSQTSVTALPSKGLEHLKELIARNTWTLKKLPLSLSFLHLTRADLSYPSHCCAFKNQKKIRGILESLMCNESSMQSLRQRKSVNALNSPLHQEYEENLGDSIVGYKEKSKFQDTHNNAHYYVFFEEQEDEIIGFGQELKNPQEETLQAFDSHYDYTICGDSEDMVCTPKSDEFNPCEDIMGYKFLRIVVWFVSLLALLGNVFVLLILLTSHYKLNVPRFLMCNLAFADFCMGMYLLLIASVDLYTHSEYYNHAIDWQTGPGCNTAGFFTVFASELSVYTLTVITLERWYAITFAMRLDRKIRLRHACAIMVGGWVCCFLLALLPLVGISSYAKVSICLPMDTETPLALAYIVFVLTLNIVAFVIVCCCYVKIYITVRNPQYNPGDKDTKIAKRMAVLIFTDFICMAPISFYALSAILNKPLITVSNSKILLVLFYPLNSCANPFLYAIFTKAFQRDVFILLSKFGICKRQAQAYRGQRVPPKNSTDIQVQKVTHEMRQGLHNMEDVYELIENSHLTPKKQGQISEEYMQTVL
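cAMP rise detected as CNG-channel membrane depolarization by fluorescent dye (emission 590 nm), 30 min after compound, following 60 min dye loading containing 100 uM RO 20-1724 at room temperature. Cells: TSHR/CNG HEK 293, with parental CNG HEK 293 as control.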
A488 autofl: A488 region autofluorescence; compound autofluorescence, A488 spectral region, dye equivalency; stronger effect = higher value; max dye equivalency, M; hit rate 0.1% among 59,000; AID 591; active = above 10 nM dye equivalent; inconclusive = 1 to 10 nM; inactive = 1 nM or less; about half of its hits are not listed in these tables;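 also: highest value over a series up to 38 µM; compound alone in buffer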
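Intrinsic compound fluorescence is measured in 100 mM Tris buffer at pH 8.0 following 15 min incubation at room temperature. Intensities at 480 nm excitation/540 nm emission are calibrated to an on-plate A488 concentration series, giving dye-equivalent concentrations.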
A647 fluor: compound fluoresces in the A647 spectral region; Compound fluorescence, A647 channel (570/671 nm), Tris buffer; 59,000 tested, under 10 active; AID 592; max dye-equivalent concentration, M; active means above 1 µM dye equivalent; inconclusive means 0.1 to 1 µM; inactive means 0.1 µM or less;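 also: values scaled relative to a standard on each plate; highest value over a series up to 38 µM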
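Each compound's intrinsic fluorescence at 570 nm excitation and 671 nm emission is measured across its concentration series in 100 mM Tris, pH 8.0, after 15 min at room temperature, and reported relative to an A647 curve.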
Resorufin fluor: compound fluoresces in the resorufin spectral region; Compound fluorescence, resorufin region 547/598 nm, buffer; stronger effect = higher value; max dye-equivalent concentration, M; hit rate 0.04% among 59,000; AID 588; active = above 10 nM dye equivalent; inconclusive = 1 to 10 nM; inactive = 1 nM or less; a few of its hits are not listed in these tables; also: highest value over a series up to 38 µM
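Tris 100 mM pH 8.0; compound added, 15 min RT; CCD imager read, ex 547 nm/em 598 nm; signal normalized to resorufin standard curve (six concentrations per plate) as dye-equivalent concentration.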
AID923: qHTS Assay for Allosteric/Competitive Inhibitors of Caspase-1: Spectroscopic Profiling in AFC Spectral Region; compound fluorescence, AFC spectral region (405/520 nm); almost no hit is shown here; Potency, µM (top dose mostly 57.5 µM), without a hit: at the highest dose fluorescence increase, most hits filed as activators; hit rate 1.1% among 75,000; AID 923, 2007; active = well fitted activation curve with a large enough effect; inconclusive = small, poorly fitted or top-dose-only effect;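 also: potency is read from the fitted curve at half-maximal effect; 0% is about no effect; scaled to a free AFC standard on each plate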
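Compound autofluorescence profiled at 405 nm ex/520 nm em during kinetic caspase 1 run (50 nM enzyme, 5 uM Ac-WEHD-AFC, HEPES pH 7.5, 10 mM DTT). Titration up to 57 uM; baseline from regression intercept, normalized to AFC standard curve.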
* hit, by the source's call; i = inactive; ? = inconclusive; nt = no result given; & = joins results of further samples; [ ] = another dose, or the depositor's remark. An excerpt, so the mix of outcomes need not match the whole.

SMILES	TSHR ag	A488 autofl	A647 fluor	Resorufin fluor	AID923
COCCCNC(=O)CCn1c(=O)c2ccccc2n(CC(=O)Nc2ccc(C)cc2C)c1=O	-4%	i	1e-09	i	-1.8%
CC1(Cc2cn(CCC#N)c3ccccc23)OCCO1	16µM*	i	3.1e-09	i	-0.9%
O=C(O)CCC(=O)Nc1ccc2c(c1)oc1ccccc12	2%	i	1e-08	i	0.2%
O=C(CSCc1cnn(-c2ccccc2)c1-n1cccc1)NCc1cccs1	?	i	3.2e-08	i	1.3%
C=CCn1c(=O)/c(=C/c2ccc(Cl)cc2)s/c1=C(/C#N)c1nnc2n1CCCCC2	-8%	i	2.3e-09	i	4.4%
COc1ccc(NC(=O)Nc2cccs2)cc1OC	0%	i	2.6e-08	i	0.4%
Cc1cccn2cc(CNC(=O)CC3CCCC3)nc12	-5%	i	1e-09	i	0.6%
COc1ccc(S(=O)(=O)NC(CC(=O)N2CCc3ccccc32)c2ccco2)cc1 (configuration not stated)	30%	i	3.1e-08	i	-1.0%
Cc1cc(N2CCN(c3ccccc3)CC2)nc(-n2nc(C)cc2C)n1	19%	i	4.1e-08	i	1.3%
COCCn1c(SCC#N)nnc1-c1ccccc1O	0%	i	2.3e-08	i	-0.1%
COc1ccc(C)cc1NC(=O)C1CCN(S(=O)(=O)c2cccc3cccnc23)CC1	9%	nt	nt	nt	11%
CCOC(=O)C(Oc1ccc(=O)[nH]n1)C(C)=O (configuration not stated)	nt	i	2.7e-08	i	nt
C/C=C/Cn1c(SCc2ccccc2)nc2c1c(=O)[nH]c(=O)n2C	?	i	1e-09	i	-0.2%
N#Cc1c(N2CCN(C(=O)c3ccco3)CC2)nc(-c2ccccc2)c2c1CCCC2	?	nt	nt	nt	11%
COC(=O)c1ccc(CSc2nc3c(cnn3-c3ccccc3)c(=O)[nH]2)o1	26%	i	2.1e-08	i	0.2%
CN(Cc1nc(-c2ccccn2)no1)S(=O)(=O)c1ccc(Br)cc1	8%	i	6e-09	i	1.0%
O=C(CSc1nnc(COc2ccccc2)o1)Nc1nccs1	?	nt	nt	nt	1.2%
COc1ccc(OCC2CC3C(CCC(C)C3c3ccc(Br)cc3)C(=O)O2)cc1 (configuration not stated)	?	nt	nt	nt	-3.0%[11.5 µM]
Cc1cc2c(cc(C(=O)NCCCN3CCOCC3)n2Cc2ccc(Cl)cc2)o1	6%	nt	nt	nt	4.5%
CCC(c1nnnn1CCOC)N1CCN(c2cccc(C(F)(F)F)c2)CC1 (configuration not stated)	?	i	5.9e-09	i	-5.9%
CCOc1ccccc1-c1nnc(SCC(=O)Nc2ccccc2)o1	14%	i	1.9e-08	i	0.1%
[O-][n+]1onc2c1C(N1CCOCC1)CCC2N1CCOCC1 (configuration not stated)	27%	i	4e-08	i	-0.7%
O=C(NCCN1CCOCC1)c1ccncc1	0%	i	1.8e-09	i	-0.5%
COc1ccc(S(N)(=O)=O)cc1C(=O)NCC1(N2CCCCC2)CCCCC1	2%	i	1.2e-08	i	0.7%
Cc1ccc2cc3cc(C(=O)NCCCN4CCCCCC4)oc3nc2c1	?	i	1.3e-08	i	1.8%
Next entries:
SMILES	TSHR ag	A488 autofl	A647 fluor	Resorufin fluor	AID923
CC(C)(C)OC(=O)NCCC(=O)Oc1ccc2ccc(=O)oc2c1	nt	i	2.5e-08	i	nt
Cc1nc(SCC(=O)Nc2cccc(Cl)c2)n[nH]1	-3%	nt	nt	nt	0.9%
CN1CCN(Cc2nc3c(c(=O)n(C)c(=O)n3C)n2Cc2ccccc2Cl)CC1	-8%	nt	nt	nt	-3.4%
Cc1nc2sccn2c1-c1nc(C2CC2)c(C(=O)c2ccc3c(c2)NC(=O)CO3)s1	3%	i	1e-09	i	7.0%
O=C(NCCCn1ccnc1)c1ccc2c(c1)OCCO2	2%	i	4.4e-09	i	-0.3%
CCOC(=O)CCc1c(C)nc(SCCCn2c(=O)[nH]c3ccccc32)c(C#N)c1C	?	i	4.8e-09	i	0.9%
O=C1N=C(N2CCOCC2)CS1	4%	i	1.6e-08	i	-0.4%
Cc1cc(C)c(NC(=O)C2CCCN2CCO)c(C)c1 (configuration not stated)	0%	i	1.9e-08	i	4.9%
COc1ccc(C(=O)N2CCSC2=S)cc1OC	7%	i	1.1e-08	i	0.4%
O=C(CNS(=O)(=O)c1cccs1)Nc1ccc2c(c1)OCCO2	nt	i	1e-09	i	-1.3%
CC(Oc1ccccc1)C(=O)Nc1ccc(S(=O)(=O)N2CCOCC2)cc1 (configuration not stated)	-4%[11.4 µM]	nt	nt	nt	2.5%
CCN1C(=O)[C@H]2[C@H]3[C@H](O)[C@H](O)C/C(=N/O[C@@H]4O[C@@H](COC(C)=O)[C@@H](OC(C)=O)[C@@H](OC(C)=O)[C@H]4OC(C)=O)[C@H]3CC[C@@H]2C1=O	-6%[11.4 µM]	nt	nt	nt	-0.9%[11.5 µM]
Cc1ccc2cc(CN(CCN3CCCC3)C(=O)Nc3ccc(F)cc3)c(=O)[nH]c2c1C	25%	i	3.9e-08	i	1.4%
CCOC(=O)N1CCN(C(=O)CSc2nnc(-c3cc(OC)ccc3OC)o2)CC1	12%	i	4.2e-08	i	-1.0%
O=C(CSc1nnc(COc2ccccc2)n1Cc1ccco1)c1ccc(F)cc1	?	i	2.1e-08	i	0.5%
COCC(=O)NCc1ccc2c(c1)cc(C)n2C	20%	i	1.9e-08	i	10%
c1ccc(C2=Nn3c(nnc3-c3cc(-c4ccccc4)n[nH]3)SC2)cc1	?	i	3.4e-08	i	1.3%
Cc1ccc(-n2ncc3c(Nc4c(C)n(C)n(-c5ccccc5)c4=O)ncnc32)c(C)c1	0%	i	5.8e-09	i	-2.4%
Cc1c(C(=O)O)c2cc(O)ccc2n1-c1ccccc1	-1%	i	1.3e-08	i	-2.2%
COCCCn1c(=N)c(C(=O)NCc2ccc3c(c2)OCO3)cc2c(=O)n3ccccc3nc21	?	i	2.2e-08	i	8.2%
COc1ccc(NC(=O)N(C2CCCCC2)C(C)c2ccco2)c(OC)c1 (configuration not stated)	?	i	6.1e-09	i	0.8%
N#Cc1ccccc1Cn1c(=O)n(Cc2ccc(C(=O)NCc3ccco3)cc2)c(=O)c2ccccc21	5%	i	2.1e-08	i	0.4%
O=C(COc1ccc2oc3c(c2c1)CCCC3)Nc1ccccn1	?	i	2.8e-09	i	1.5%
Fc1ccc(NCc2cn3ccccc3n2)cc1	-2%	i	1e-09	i	-1.2%
COCC(=O)Nc1nnc(-c2cccs2)s1	0%	i	1e-09	i	0.0%

Complete entries as entered above.
O=C1N=C(N2CCOCC2)CS1 is entered as TSHR ag = 4%; A488 autofl = i; A647 fluor = 1.6e-08; Resorufin fluor = i; AID923 = -0.4%
CN1CCN(Cc2nc3c(c(=O)n(C)c(=O)n3C)n2Cc2ccccc2Cl)CC1 is entered as TSHR ag = -8%; A488 autofl = nt; A647 fluor = nt; Resorufin fluor = nt; AID923 = -3.4%
CC(C)(C)OC(=O)NCCC(=O)Oc1ccc2ccc(=O)oc2c1 is entered as TSHR ag = nt; A488 autofl = i; A647 fluor = 2.5e-08; Resorufin fluor = i; AID923 = nt

(continued)
SMILES	TSHR ag	A488 autofl	A647 fluor	Resorufin fluor	AID923
O=C(NCc1ccccn1)C1CCC(=O)N1C1CCCC1 (configuration not stated)	-1%	nt	nt	nt	-0.7%
CCOC(=O)c1ccc(S(=O)(=O)n2c(CN3CCCCC3)nc3ccccc32)cc1	0%	i	4.7e-08	i	3.0%
N#Cc1ccc(CN2CCC3(CC2)CCN(C(=O)c2ccco2)CC3)cc1	2%	i	1e-09	i	3.8%
Cc1ccnc2c1NC(=O)c1cccnc1N2C1CC1	-3%&-4%	i	4e-09	i	-4.0%&1.8%
COc1ccc(C)cc1NS(=O)(=O)c1ccc(NS(=O)(=O)c2ccc(NC(C)=O)cc2)cc1	-5%[11.4 µM]	nt	nt	nt	0.2%
CCN(CC)CCOC(=O)c1c(C)n(C)c2ccc(OC)cc12	nt	i	2.9e-09	i	nt
O=c1cc(N2CCOCC2)oc2c(-c3ccccc3)cccc12	nt	i	6.3e-08	i	-2.2%&-3.5%
O=C(CSc1nnc(-c2cnccn2)n1Cc1ccco1)c1ccc(Cl)cc1	?	i	1e-09	i	11%
Nc1ccc(S(=O)(=O)c2ccc(NC(=O)c3cccnc3)cc2)cc1	0%[11.4 µM]	i	6.5e-09	i	0.4%[11.5 µM]
C=CCn1c(SCC(=O)Nc2cc3oc4ccccc4c3cc2OC)nnc1-c1cnccn1	nt	i	7.9e-09	i	1.1%
CCN(CC)C(=O)c1cc(-c2ccccc2OC)on1	-5%[11.4 µM]	i	8.6e-09	i	-0.8%
CCOC(=O)c1ccc(S(=O)(=O)N2CCC(C(=O)OCC)CC2)cc1	7%	i	1.7e-09	i	2.4%
O=S(=O)(c1ccc(S(=O)(=O)N2CCN(Cc3ccccc3)CC2)cc1)N1CCOCC1	nt	i	3.3e-08	i	0.7%
Cn1c(=O)c2c(nc(Br)n2Cc2ccc3ccccc3c2)n(C)c1=O	nt	i	1e-09	i	nt
CCOC(=O)N1CCN(S(=O)(=O)c2cc(OCC(N)=O)c(C)cc2Cl)CC1	5%	i	4.3e-08	i	-0.1%
N#Cc1nc(-c2cccs2)oc1NCCc1ccccc1	nt	i	2.7e-08	i	nt
CCC(C)NC(=O)Cn1cc2c(n1)CCC(C)C2 (configuration not stated)	7%	nt	nt	nt	2.1%
Oc1ccc(C(=S)N2CCCCC2)cc1Cl	4%	i	1.1e-08	i	3.8%
O=c1cc(CN2CCN(c3ccc(F)cc3)CC2)nc2sccn12	1%[11.4 µM]	i	1e-09	i	3.3%
COc1ccc(Nc2nc(C)cc(C)c2C(N)=O)c(OC)c1	-3%	i	1.2e-09	i	0.1%
CC1CCCN(C(=O)Cn2c(=O)oc3ccccc32)C1 (configuration not stated)	17%	i	3.9e-08	i	1.3%
COC(=O)CSc1nc2cc3c(cc2cc1C)OCCO3	-2%	i	1e-09	i	-0.9%
Cc1cc2cc(C(c3nnnn3Cc3ccco3)N3CCc4ccccc43)c(=O)[nH]c2cc1C (configuration not stated)	3%	i	4.7e-09	i	8.0%
CCOC(=O)C1=CSC2=NS(=O)(=O)CCN12	3%	i	5.6e-09	i	-2.2%
CCOc1ccc(NC(=O)CN2C(=O)C3CC=CCC3C2=O)cc1 (configuration not stated)	-1%	i	8.7e-09	i	-1.1%
Remaining list, next part:
SMILES	TSHR ag	A488 autofl	A647 fluor	Resorufin fluor	AID923
CCc1nnc(NC(=O)c2ccc(S(=O)(=O)N3CCCCC3C)cc2)s1 (configuration not stated)	-3%	i	1e-09	i	1.0%
COC(=O)[C@H](CC(C)C)NC(=O)NC1CCCc2ccccc21 (some centres not stated)	8%	i	2.7e-08	i	2.5%
N#Cc1c(N)c(C(=O)c2ccccc2)n2c1CCC2	-6%	i	3.1e-09	i	0.4%
NC(N)=NCCC[C@H](NC(=O)CC1(CC(=O)N2CCN(C3c4ccccc4NC(=O)c4ccccc43)CC2)CCCC1)C(=O)NCCn1c(=O)n(-c2ccccc2)n(-c2ccccc2)c1=O (some centres not stated)	-9%	nt	nt	nt	0.1%
CCOC(=O)Cn1c(CN(C)Cc2ccccc2)nc2c1c(=O)n(C)c(=O)n2C	?	i	1.3e-08	i	1.6%
CCOC(=O)c1c(Nc2nc(C)c(C(=O)NC)s2)sc(C)c1C	4%	i	1e-09	i	4.4%
COc1cccc(-c2ccc3ncnc(NCc4ccc(OC)cc4OC)c3c2)c1	?	i	1.6e-08	i	1.7%
CCN(CC)C(=O)c1cccc(C)c1	?	nt	nt	nt	1.1%
